Screens (PubChem BioAssay)
ALR inh: human ALR oxidase inhibition via reduced H2O2 | AID 485317 | 290,000 compounds, 3.8% hits | purified ALR, DTT oxidation, H2O2 HRP-luminol luminescence | P55789 | inhibition, % (no concentration beside the values);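 active = mean and each replicate at 75% or more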;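 note: stock transfer was 7.5 nL into about 7.5 µL; 0% = neutral wells and 100% = wells with inactivated enzyme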
Target sequence (P55789 whole entry, looked up): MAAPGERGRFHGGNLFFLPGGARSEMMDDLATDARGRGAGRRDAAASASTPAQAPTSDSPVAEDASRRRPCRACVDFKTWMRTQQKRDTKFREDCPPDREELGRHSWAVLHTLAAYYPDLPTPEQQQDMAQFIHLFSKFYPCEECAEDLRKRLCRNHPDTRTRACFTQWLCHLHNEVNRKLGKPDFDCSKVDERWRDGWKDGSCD
UCH37 inh: inhibitors of human deubiquitinating enzyme UCH37; purified proteasome/UCH37, Ub-AMC cleavage fluorescence; inhibition, % (test concentration not listed); Q9Y5K5; AID 588478; 330,000 compounds, 0.33% hits;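 active = mean of two replicates above 20%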;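 note: 0% = compound-free wells with enzyme and 100% = wells lacking proteasome; stock transfer was 100 nL into about 20 µL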
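Test system – human UCH37 enzyme supplied as purified proteasome complex · Incubation – 30 min preincubation with enzyme, 25 min cleavage at room temperature · Detection – AMC fluorescence from Ub-AMC cleavage, excitation 355 nm, emission 460 nm · Benchmarks – no-proteasome wells (full inhibition) and compound-free wells (no inhibition)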
Ecoli growth: inhibitors of Escherichia coli growth; OD600, 23 h; hits give low values; OD600 absorbance (test concentration not listed); 330,000 compounds, 0.21% hits; AID 1053175;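 active = OD600 absorbance below the run mean of sample wells minus 3.6 SD, in any replicate, cut at about 0.56 in these data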;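 note: stock transfer was 300 nL into about 60 µL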
HNF4A DNA FP: change in binding of human HNF4 alpha to DNA; P41235; HNF4a-FITC DNA binding, fluorescence polarization, 1 h; activity change, % at 10 µM; 360,000 compounds, 0.3% hits; in the data active = activity change above about 30%, passing the limit was not always enough;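 note: controls were the assay level and a saturating level of protein; the project sought stronger binding though the title names inhibitors; some compounds called inactive have numbers as strong as hits; positive values seem to mean higher polarization but the record does not say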
Target sequence (P41235 whole entry, looked up): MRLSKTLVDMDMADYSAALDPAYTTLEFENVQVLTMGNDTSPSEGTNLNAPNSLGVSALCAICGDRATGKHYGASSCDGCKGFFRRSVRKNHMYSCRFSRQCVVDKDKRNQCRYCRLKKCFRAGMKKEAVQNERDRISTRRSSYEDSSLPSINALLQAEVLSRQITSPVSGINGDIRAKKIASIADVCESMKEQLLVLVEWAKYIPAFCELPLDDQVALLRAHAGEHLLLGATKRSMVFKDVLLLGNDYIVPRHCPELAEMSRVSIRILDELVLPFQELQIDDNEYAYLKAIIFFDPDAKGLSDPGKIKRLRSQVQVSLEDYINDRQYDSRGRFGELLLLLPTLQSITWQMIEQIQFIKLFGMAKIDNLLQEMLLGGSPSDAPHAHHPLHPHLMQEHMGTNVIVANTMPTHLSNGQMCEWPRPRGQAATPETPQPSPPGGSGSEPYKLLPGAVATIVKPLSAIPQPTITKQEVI
B2AR ag: activates human beta-2 adrenergic receptor causing internalization; P07550; 340,000 compounds, 0.43% hits; Am2.2-beta2AR cells, FAP receptor internalization, flow cytometry; reference of the scale not given here; response, % (concentration not given with the values);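 active = response above a set limit, near 3 SD of response in nonfluorescent compounds, cut at about 42% in these data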;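 note: stock transfer was 100 nL into about 11 µL; a reference agonist was the positive control; negative values mostly stem from fluorescent compounds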
Ecoli rRNA inh: inhibitors of bacterial rRNA selective over humanized ribosomes; 350,000 compounds, 1.6% hits; E. coli WT GFP vs humanized-ribosome RFP mutants, fluorescence, 24 h; hits give low values; DMSO median 0, no signal -100; GFP signal change (wild-type ribosome), % (no concentration beside the values);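 active = significant combined selectivity score with lowered wild-type GFP, culture density cut under 30%, mutant RFP and density less affected; inactive = any of these conditions unmet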; note: one replicate is shown; some compounds called inactive have numbers as strong as hits
FGF22 binding: shifts melting point of recombinant human FGF22 | Q9HCT0 | recombinant FGF22 thermal shift, SYPRO orange fluorescence; percent of sucrose octasulfate shift, DMSO zero | calls only at 9.99 µM | 340,000 compounds, 1.5% hits | AID 651658;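 active = melting point raised past a set limit in the mean and every replicate; three in four hits are not shown here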
Target sequence (Q9HCT0 whole entry, looked up): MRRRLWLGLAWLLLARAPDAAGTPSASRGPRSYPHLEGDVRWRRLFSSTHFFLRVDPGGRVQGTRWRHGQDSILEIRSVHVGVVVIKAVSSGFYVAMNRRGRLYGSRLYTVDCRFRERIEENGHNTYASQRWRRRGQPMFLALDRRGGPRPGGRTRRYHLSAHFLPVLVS
Ecoli rRNA inh OD600: further read-out of Ecoli rRNA inh, marked with its call; OD600 change, %; measured here: OD600 growth;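 optical density of the mix in the first replicate; 0 = DMSO median and -100 = no signal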
Ecoli rRNA inh RFP: recorded beside Ecoli rRNA inh, whose call it bears; RFP signal change, %; measured here: RFP humanized mutant strains;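 first replicate; 0 = DMSO median and -100 = no signal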
Numbers without * were called inactive; i = inactive; / = no result given. Not all compounds are listed. The share of hits here may be higher or lower than overall.

ALR inh | UCH37 inh | Ecoli growth | HNF4A DNA FP | B2AR ag | Ecoli rRNA inh | Ecoli rRNA inh OD600 | Ecoli rRNA inh RFP | FGF22 binding | SMILES
1 | 1.6 | 0.66 | -1.9 | 6 | 5 | 14 | 0.8 | i | CN(CC(=O)Nc1c(Cl)cccc1Cl)C(=O)C1=COCCO1
-6 | 2.6 | 0.73 | -0.2 | -1 | / | / | / | / | Cc1nn(C)cc1CNC(=O)c1cccc(Cl)c1
-10 | 2.7 | 0.68 | -0.8 | 2 | 6 | 13 | -9.0 | i | Cc1ccc(SCCN2CCC(O)CCC2=O)cc1 (stereo unspecified)
-6 | 0.0 | 0.57 | -0.7 | -20 | / | / | / | / | CN(C)S(=O)(=O)c1ccc(C(=O)NCc2cccs2)cc1
-24 | 5.2 | 0.67 | -2.4 | 0 | 6 | -14 | -1.5 | i | O=C(COC(=O)c1ccc2ncsc2c1)Nc1cccc(Cl)c1
-3 | / | / | 2.1 | -2 | / | / | / | / | COc1cc(C(=O)NCC(=O)N/N=C(/C)c2cccs2)cc(OC)c1OC
-3 | -4.5 | 0.66 | 36 | 6 | / | / | / | i | CC[C@H](C)/C=C(C)/C=C/C(=O)Cc1cc(O)c(C)c(O)c1C=O
14 | / | / | 3.3 | -12 | -2 | 7 | -1.6 | i | COCCNC(=S)N/N=C(\C)c1cccc([N+](=O)[O-])c1
-10 | 1.2 | 0.72 | -1.1 | -18 | / | / | / | / | O=C1CN=C(Nc2ccc(Cl)cc2)N1c1ccccc1
17 | / | / | -4.5 | 2 | / | / | / | / | O=C(N/N=C/c1ccco1)c1cc(-c2cccc(Br)c2)nc2ccccc12
/ | / | / | -0.8 | / | -5 | -12 | -1.3 | i | COc1ccc(CCNC(=O)Nc2ccc3c(c2)c(=O)n(C)n3Cc2ccc(F)cc2)cc1OC
6 | -337 | 0.64 | -14 | -1 | -18 | -33 | -7.2 | i | COc1ccc2c(c1)c(=O)oc1c(C)c(OCc3cc(C(=O)O)oc3C)ccc12
-8 | 4.0 | 0.73 | 2.2 | 13 | -12 | -11 | -0.5 | i | O=C(NCCc1ccc(Cl)cc1Cl)c1cccnc1
-3 | 1.4 | 0.72 | -1.8 | 0 | 5 | -3 | -4.3 | i | O=C(/C=C/c1cccc([N+](=O)[O-])c1)NCCN1C(=O)S/C(=C\c2ccc(F)cc2)C1=O
-9 | -1.1 | 0.71 | -3.4 | 13 | 2 | 14 | 1.1 | i | COc1ccc2cc(C(=O)NCCCN3CCCC3=O)[nH]c2c1
-22 | 4.4 | 0.67 | 20 | -153 | 16 | 11 | 6.1 | i | CC(=O)/C(N=Nc1cc(C)ccc1O)=C(\C)O
-23 | -0.6 | 0.69 | 3.5 | -2 | / | / | / | / | O=C(CSC1=NCCS1)N1CCOCC1
-15 | -0.5 | 0.76 | 4.1 | -20 | 3 | 6 | -3.0 | i | O=C(Nc1cccc(C(F)(F)F)c1)c1cnc2n(c1=O)CCS2
-13 | 0.0 | 0.68 | 0.9 | 1 | 7 | 12 | -1.9 | i | COc1ccc(C(=O)O/N=C(\N)c2ccccc2)cc1OC
0 | 1.8 | 0.64 | -3.5 | -3 | 9 | 4 | 0.8 | / | CCOC(=O)C1(Cc2ccccc2)CCN(Cc2ccc3c(c2)OCCO3)CC1
-1 | 1.9 | 0.72 | 1.2 | -5 | / | / | / | / | COCCCNC(=O)c1oc2ccc(S(=O)(=O)N(C)C3CCCCC3)cc2c1C
-3 | -0.2 | 0.71 | 1.0 | -13 | / | / | / | / | Cc1cccc(N2C(=O)CC(SC(=Nc3ccccc3)Nc3ccccc3)C2=O)c1 (stereo unspecified)
/ | 0.1 | 0.7 | -4.2 | -1 | / | / | / | / | CCOC(=O)c1cccc(NC(=O)CN(c2ccc(C)cc2)S(=O)(=O)c2c(C)noc2C)c1
/ | 1.4 | 0.78 | 0.4 | -5 | / | / | / | / | O=S1(=O)CC(O)C(Nc2ccc(Cl)cc2)C1 (stereo unspecified)
-4 | 1.8 | 0.72 | -0.8 | -13 | / | / | / | / | CC(C)C(=O)Nc1ccc(C(=O)c2ccccc2)cc1

Profiles, quoted from the list. Order of screens: ALR inh, UCH37 inh, Ecoli growth, HNF4A DNA FP, B2AR ag, Ecoli rRNA inh, Ecoli rRNA inh OD600, Ecoli rRNA inh RFP, FGF22 binding
CN(CC(=O)Nc1c(Cl)cccc1Cl)C(=O)C1=COCCO1 reads 1, 1.6, 0.66, -1.9, 6, 5, 14, 0.8, i
COc1ccc(C(=O)O/N=C(\N)c2ccccc2)cc1OC reads -13, 0.0, 0.68, 0.9, 1, 7, 12, -1.9, i
CC[C@H](C)/C=C(C)/C=C/C(=O)Cc1cc(O)c(C)c(O)c1C=O reads -3, -4.5, 0.66, 36, 6, /, /, /, i

Some of the entries so far, as labelled records.
> O=C(Nc1cccc(C(F)(F)F)c1)c1cnc2n(c1=O)CCS2
  ALR inh = -15
  UCH37 inh = -0.5
  Ecoli growth = 0.76
  HNF4A DNA FP = 4.1
  B2AR ag = -20
  Ecoli rRNA inh = 3
  Ecoli rRNA inh OD600 = 6
  Ecoli rRNA inh RFP = -3.0
  FGF22 binding = i

> CC[C@H](C)/C=C(C)/C=C/C(=O)Cc1cc(O)c(C)c(O)c1C=O
  ALR inh = -3
  UCH37 inh = -4.5
  Ecoli growth = 0.66
  HNF4A DNA FP = 36
  B2AR ag = 6
  Ecoli rRNA inh = /
  Ecoli rRNA inh OD600 = /
  Ecoli rRNA inh RFP = /
  FGF22 binding = i

> O=C(COC(=O)c1ccc2ncsc2c1)Nc1cccc(Cl)c1
  ALR inh = -24
  UCH37 inh = 5.2
  Ecoli growth = 0.67
  HNF4A DNA FP = -2.4
  B2AR ag = 0
  Ecoli rRNA inh = 6
  Ecoli rRNA inh OD600 = -14
  Ecoli rRNA inh RFP = -1.5
  FGF22 binding = i

Further compounds
ALR inh | UCH37 inh | Ecoli growth | HNF4A DNA FP | B2AR ag | Ecoli rRNA inh | Ecoli rRNA inh OD600 | Ecoli rRNA inh RFP | FGF22 binding | SMILES
/ | 0.2 | 0.65 | 3.7 | -2 | 12 | 6 | -1.2 | i | CCc1ccc(OCC(O)CN2CCCC2)cc1 (stereo unspecified)
0 | -0.3 | 0.64 | 1.7 | 3 | -3 | -3 | -2.4 | i | Cc1ccc(C(C#N)c2ccc(Cl)nn2)cc1 (stereo unspecified)
-8 | 2.1 | 0.65 | 2.2 | 0 | 14 | 16 | 0.6 | i | N#CCCN(Cc1cccnc1)C(=S)NC(=O)c1ccco1
-8 | 3.3 | 0.64 | 0.7 | 2 | / | / | / | / | Cc1onc(-c2c(Cl)cccc2Cl)c1C(=O)N1CCc2ccccc21
-4 | 4.0 | 0.63 | 1.0 | 8 | 7 | 10 | 3.9 | i | CC(C)(C)c1ccc(C(=O)Nc2ccc(O)c3c(=O)cc(-c4cccc(Cl)c4)oc23)cc1
99* | -1.2 | 0.72 | -0.2 | -18 | 2 | -1 | -0.6 | i | COc1ccc(-c2nc(CSCC(=O)NC3CCN(Cc4ccccc4)CC3)c(C)o2)cc1OC
/ | 4.5 | 0.65 | -3.9 | 0 | 10 | 14 | 8.6 | i | COc1ccc(NC(=O)n2ncc3c(C)cccc32)cc1OC
3 | 3.3 | 0.69 | -4.2 | -21 | / | / | / | / | O=C1c2sc3nc4c(c(=O)n3c2C(=O)N1c1ccccc1)CCC4
6 | / | / | 1.8 | 3 | / | / | / | / | N#CCCn1cc(/C=N/NC(=O)c2ccncc2)c(-c2ccccc2)n1
0 | 9.6 | 0.71 | 1.0 | 8 | 19 | 13 | 4.8 | / | CCCOc1ccc(C2C(C(=O)/C=C/c3ccco3)=C(O)C(=O)N2CCN2CCOCC2)cc1OC (stereo unspecified)
/ | / | / | 1.4 | / | -2 | 0 | -1.2 | i | Cc1ccc(S(=O)(=O)NC(=O)C2(C)CCN2C(=O)c2ccccc2CCc2ccccc2)nc1 (stereo unspecified)
-10 | 1.0 | 0.71 | -0.1 | -13 | / | / | / | / | CCC(=O)c1c[nH]c(C(=O)NCC2CCCO2)c1 (stereo unspecified)
5 | 3.2 | 0.69 | 2.3 | 5 | -15 | -16 | -1.2 | i | Cc1cc(C)c(NS(=O)(=O)c2c(C)noc2C)c(C)c1
-3 | / | / | 11 | 0 | / | / | / | / | N#Cc1c(Sc2ncc(C(F)(F)F)cc2Cl)nsc1C/C=N\OCc1c(F)cccc1Cl
/ | -60 | 0.6 | 105* | -3 | 10 | 6 | -7.4 | i | Cc1ccc(-n2cc(C(=O)c3ccc(N4CCN(C)CC4)cc3)nn2)cc1Cl
-5 | 2.7 | 0.67 | 4.2 | 0 | 12 | 8 | 0.9 | i | COCCNC(=O)c1c(C)cc(C)cc1C
-9 | 1.9 | 0.74 | -4.0 | 7 | -2 | 8 | 1.5 | i | CN(C)C(=O)Cn1c(SCC(=O)N2CCCc3ccccc32)nc2ccccc21
-18 | 4.0 | 0.68 | 4.3 | 4 | -8 | -5 | 1.3 | i | Cc1ccc(S(=O)(=O)N2CCCC2C(=O)NCc2ccccc2Cl)cc1 (stereo unspecified)
/ | 6.0 | 0.71 | -1.3 | -15 | / | / | / | / | O=C(c1cn(CC(=O)N2CCCCC2)c2ccccc12)C1CC1
23 | -0.6 | 0.63 | 0.2 | 7 | 8 | 8 | 7.7 | i | CNC(=S)NNC(=O)c1ccccc1Br
-4 | 4.2 | 0.67 | 2.2 | 11 | -3 | 3 | -0.2 | / | CCSC1=C(C#N)C(c2ccccc2C)CC(=O)N1 (stereo unspecified)
-7 | 2.2 | 0.69 | 2.0 | -2 | -17 | -14 | -2.3 | i | Cc1cccc(N=C2NN=C(c3ccccc3F)CS2)c1C
-6 | 3.5 | 0.71 | -2.8 | -1 | / | / | / | / | N#CN(CC(N)=O)c1nc(N2CCCCC2)nc(N2CCCCC2)n1
-3 | 4.3 | 0.66 | 1.1 | 2 | -46 | -76 | -11 | i | O=C(Nc1cccc(C(F)(F)F)c1)Oc1ccccc1N1CCOCC1
-1 | 4.4 | 0.72 | 1.7 | -3 | 2 | -6 | -8.3 | i | CC(C)CCCNc1nc(N2CCOCC2)nc(N2CCOCC2)n1
-5 | -8.9 | / | -3.0 | 10 | / | / | / | / | Oc1cc(-c2ccc(N3CCCCC3)nc2)cc2cccnc12
-3 | 4.3 | 0.64 | 0.5 | 1 | -9 | -25 | -0.1 | i | CC(=O)Nc1ccc(Oc2cncc(Cl)c2)nc1
-2 | 2.5 | 0.69 | / | / | / | / | / | / | CC(NC(=O)CCN1N=C(c2ccccc2)CCC1=O)c1ccc2c(c1)OCCO2 (stereo unspecified)
1 | 0.1 | / | 5.9 | -8 | 7 | 2 | -4.4 | i | C/C(=C\C(=O)c1ccccc1)Nc1ccc2c(c1)OCO2
4 | 1.0 | 0.72 | 1.3 | 2 | 3 | 11 | 3.4 | i | CN(c1ccccc1)S(=O)(=O)c1nnc(NC(=O)COc2ccccc2F)s1
-4 | -3.5 | 0.68 | -1.9 | 9 | 0 | 2 | -0.2 | i | Cc1ccccc1CN1CCC(N2CCC(C(=O)NCC3CCCO3)CC2)CC1 (stereo unspecified)
-5 | / | / | 5.9 | 10 | -26* | -13* | -5.9* | i | NNc1nc2c(Cl)ccc(Cl)c2s1
-12 | 7.9 | 0.67 | 1.7 | -2 | -3 | 0 | -2.5 | i | O=C(N/C(=C/c1ccc([N+](=O)[O-])cc1)C(=O)N1CCCC1)c1ccccc1
5 | 4.5 | / | -3.7 | 20 | -41 | -57 | -7.8 | i | O=C(O)C1=CC[C@@H](c2ccc(Cl)cc2)N(S(=O)(=O)c2ccc(Cl)cc2)[C@H]1c1cccc(Cl)c1
